Screening results from PubChem.
CBX7 inh = inhibitors of human CBX7 binding to H3K27me3 peptide. O95931. AlphaScreen His6-CBX7 / biotin-H3K27me3 peptide binding; stronger effect = lower value. normalised signal (fraction of DMSO) (concentration not given with the values). actives 1.1% (n = 66,000); in the data active = normalised signal below about 0.5;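 also: 100 nL library stock added to about 20 µL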
Target sequence (O95931 whole entry, looked up): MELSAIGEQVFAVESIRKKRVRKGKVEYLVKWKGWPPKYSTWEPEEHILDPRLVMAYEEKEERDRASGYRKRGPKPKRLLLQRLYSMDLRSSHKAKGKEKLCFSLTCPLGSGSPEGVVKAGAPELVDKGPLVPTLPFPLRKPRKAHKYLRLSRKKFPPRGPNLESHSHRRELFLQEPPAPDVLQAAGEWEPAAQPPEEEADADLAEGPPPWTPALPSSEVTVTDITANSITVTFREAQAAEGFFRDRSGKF
CBX7 inh z-score = also measured in CBX7 inh; calls as there; z-score; measured here: z-score of CBX7 signal; some inactives read as strong as hits; reference of the scale not given here;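 same signal on another scale; lower means less binding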
* marks the source's active call; other numbers are inactive results; & = joins results of further samples. The list is partial (hit frequency here may not be typical).

Under each structure: CBX7 inh, CBX7 inh z-score
> O=C1c2ccccc2C(=O)N1CC(O)COc1ccc2ccccc2c1 (stereo not drawn)
 : 1, 0.089
> COc1ccccc1NC(=O)Cn1c(=O)n(CCc2ccc(OC)c(OC)c2)c(=O)c2cccnc21
 : 0.99, -0.16
> CC(C)Cc1nnc(NC(=O)c2cccc(Cl)c2)s1
 : 1.1, 1.2
> Cc1nc(SCc2ccccc2)[nH]c(=O)c1CC(=O)O
 : 1, 0.48
> COc1ccc(C2C(C(=O)N(C)Cc3ccccc3)c3cc(OC)c(OC)cc3C(=O)N2C)cc1 (stereo not drawn)
 : 1.1, 0.69
> CC(=O)Nc1ccc(NC2c3ccccc3C(=O)N2Cc2ccccc2Cl)cc1 (stereo not drawn)
 : 1, 0.29
> COCCCNC(=O)c1cn(C)c(=O)c2cc(OC)c(OC)cc12
 : 1, 0.39
> CCOc1ccc(-c2nc(CSCC(=O)NCc3ccc(Cl)cc3)c(C)o2)cc1
 : 0.77, -3.2
> COc1ccc(CNC(=O)c2cc3c(-c4cccc(OC)c4)nn(C)c3s2)cc1
 : 1.1, 1.5
> CCOc1ccc(N2C(=O)c3cccnc3C2Nc2ccc(Br)cc2F)cc1 (stereo not drawn)
 : 0.81, -5.1
> O=C(CN1C(=O)CCSc2ccccc21)NCCCN1CCN(c2ccccc2F)CC1
 : 0.99, -0.46
> CCCc1cc(=O)[nH]c(SCC(=O)Nc2ccccc2Cl)n1
 : 0.91, -2
> CCOC(CNC(=O)c1ccc2c(c1)ncn2-c1ccc(OC)cc1)OCC
 : 0.85, -1.9
> COc1cc2c(cc1OC)C(c1cc(Br)ccc1F)NCC2 (stereo not drawn)
 : 1.2, 2.1
> c1cc2nncn2nc1N1CCCCCC1
 : 0.89, -1.4
> O=C(Nc1ccc(F)c(Cl)c1)C1CCN(S(=O)(=O)c2ccc(F)cc2)CC1
 : 1, 1.8
> Cc1ccc2c(c1)C(c1ccccc1)N(C(=O)CC(C)C)CC(=O)N2 (stereo not drawn)
 : 1.1, 0.39
> COc1cccc(-c2nn(C)c3sc(C(=O)N4CCC(N5CCCCC5)CC4)cc23)c1
 : 1, 0.54
> O=C(Cn1cnc2sc3c(c2c1=O)CCCC3)NCC(=O)Nc1ccc(Oc2ccccc2)cc1
 : 0.99, -0.32
> COc1ccc(NC(=O)c2c(NCc3cccnc3)sc3c2CCCC3)cc1
 : 0.62, -5.3

Quoted at random: 2 compounds from above, in no set order.
Under each structure: CBX7 inh, CBX7 inh z-score
> Cc1nc(SCc2ccccc2)[nH]c(=O)c1CC(=O)O
 : 1, 0.48
> COCCCNC(=O)c1cn(C)c(=O)c2cc(OC)c(OC)cc12
 : 1, 0.39

(continued)
Under each structure: CBX7 inh, CBX7 inh z-score
> COCCCNC(=O)C1CCN(c2cc(C)nc3c(-c4ccc(Cl)cc4)c(C)nn23)CC1
 : 1, 0.1
> CCOc1cccc2sc(NC(=O)c3ccc(S(=O)(=O)N4CCCCC4C)cc3)nc12 (stereo not drawn)
 : 1, 0.68
> CCC(C)NC(=O)c1ccc2c(c1)N(Cc1c(F)cccc1Cl)C(=O)CS2 (stereo not drawn)
 : 1, 0.35
> Cc1nc2c(C(=O)O)cnn2c(C)c1Cc1cccc(F)c1
 : 1, 0.13
> O=C(CSc1nnc(CNC(=O)c2cccs2)o1)Nc1ccc(F)cc1
 : 1, 0.95
> CCCCC(=O)Nc1ccc2oc(-c3ccc(OC)c(Cl)c3)nc2c1
 : 1.1, 2.3
> CCCCOc1ccc(C(=O)Nc2c3c(nn2-c2ccc(C)cc2)CSC3)cc1
 : 0.8, -3.6
> CCOC(=O)c1cnc2ccc(OC)cc2c1NCCO
 : 1, 0.7
> O=C(COc1ccccc1O)N1CCCC1
 : 0.99, -0.067
> CCOC(=O)c1cc(-c2ccccc2)n(-c2cccc(C(=O)Nc3ccc(CC)cc3)c2)c1C
 : 0.85, -2.9
> CCCCCCC(=O)Nc1c2c(nc3c1CCC3)CCCC2
 : 0.91, -1
> COC(=O)Nc1nc2cc(Oc3ccc4ccccc4c3Br)c(Cl)cc2[nH]1
 : 1.1, 2.2
> CCOc1ccc(S(=O)(=O)c2cn(Cc3ccc(C)cc3)c3ccc(OCC)cc3c2=O)cc1
 : 0.93, -2.6
> CCCCCn1c(=O)[nH]c2cc(C(=O)NCc3ccc(Cl)cc3)ccc2c1=O
 : 1, 0.75
> Cc1cc2c(cc1C)NC(CC(=O)Nc1ccccc1)C(=O)N2 (stereo not drawn)
 : 1.1, 1.2
> Cc1ccc(-c2nc3ncccn3c2NC2CCCC2)cc1
 : 1, 0.09
> Cc1ccnc(NC(=O)C2CCN(S(=O)(=O)c3c(C)noc3/C=C/c3cccs3)CC2)c1
 : 0.91, -4.2
> COc1ccc(NC(=O)CN2C(=O)CC(c3ccccc3)Sc3ccccc32)cc1 (stereo not drawn)
 : 1, 0.36
> O=C(CSc1nnc(-c2ccc(Cl)cc2)o1)N1CCCC1
 : 1, 1.8
> Cc1ccc(N(C)C(=O)c2cnc(N3CCN(c4ncccn4)CC3)c3ccccc23)cc1C
 : 1, 0.35
> COc1ccc(CNS(=O)(=O)c2c(C)noc2C)cc1
 : 0.99, -0.27
> COc1ccc(CNC(=O)CSCc2nc(-c3ccccc3C)oc2C)cc1
 : 1, 0.15
> Cc1ccc(-c2ccc(=O)n(CCC(=O)NCc3ccccn3)n2)cc1
 : 0.51, -13
> COc1ccc(CNC(=O)CCc2c(C)nc3ncnn3c2C)cc1
 : 1.1, 2.5
> COc1ccccc1N1CCN(S(=O)(=O)c2cnc[nH]2)CC1
 : 1.1, 0.28
> Cc1ccc(C)c(Cc2c(C)nc3ncnn3c2C)c1
 : 1.1, 1.9
> Cc1oc(-c2ccc(Cl)cc2)nc1CN1CCCC(C(=O)NCc2ccccc2Cl)C1 (stereo not drawn)
 : 0.98, -0.77
> O=c1[nH]c(-c2ccc(F)cc2)cn1-c1ccc(Br)cc1
 : 1, -0.093
> CC(C)CN(CCNC(=O)c1cc(-c2ccncc2)nc2ccccc12)CC(C)C
 : 0.9, -2
> CC(C)N(Cc1nc(-c2ccccc2)no1)C(=O)c1ccc(F)cc1
 : 1, -0.057
> Cc1noc(C)c1S(=O)(=O)N1CCN(c2ccccc2)CC1
 : 1, 0.054
> CCOc1ccc(CC(=O)NCCc2cc3ccc(OC)cc3[nH]c2=O)cc1
 : 0.99, -0.38
> CN1CCC(OC(c2ccccc2)c2ccccc2)CC1
 : 0.81, -2.7
> Cc1ccc(-c2nc(S(=O)(=O)c3ccc(F)cc3)c(SCC(=O)NC3CCCCC3)o2)cc1
 : 1, 0.037
> OCCNc1nc(-c2ccccc2)c2cc(Cl)ccc2n1
 : 1.3, 2.5
> CCN(CC)S(=O)(=O)c1ccc2oc(C(=O)O)c(C)c2c1
 : 0.95, -1.2
> CC1CCCCC1NC(=O)C1c2cccn2CC(=O)N1c1ccc(Cc2ccncc2)cc1 (stereo not drawn)
 : 0.99, -0.27
> CC1=CC(C)C(c2ccccc2)NC1c1ccccc1 (stereo not drawn)
 : 0.89, -0.24
> COc1cc2c(C(=O)N(C)c3ccccc3F)cn(CC(C)C)c(=O)c2cc1OC
 : 0.95, -0.054
> COc1cccc(CC(=O)Nc2ccc3nc(N4CCC(C)CC4)cc(C)c3c2)c1
 : 0.97, -0.43

Quoted from the entries so far for reference:
Under each structure: CBX7 inh, CBX7 inh z-score
> CCN(CC)S(=O)(=O)c1ccc2oc(C(=O)O)c(C)c2c1
 : 0.95, -1.2
> CC1CCCCC1NC(=O)C1c2cccn2CC(=O)N1c1ccc(Cc2ccncc2)cc1 (stereo not drawn)
 : 0.99, -0.27
> CC1=CC(C)C(c2ccccc2)NC1c1ccccc1 (stereo not drawn)
 : 0.89, -0.24
> COc1cc2c(C(=O)N(C)c3ccccc3F)cn(CC(C)C)c(=O)c2cc1OC
 : 0.95, -0.054
> COc1cccc(CC(=O)Nc2ccc3nc(N4CCC(C)CC4)cc(C)c3c2)c1
 : 0.97, -0.43

Continued.
Under each structure: CBX7 inh, CBX7 inh z-score
> CCN(CC)CCNC(=O)c1sc2nc(-c3ccccc3)cn2c1C
 : 0.93, -1.3
> Cc1ccc(-c2cc(C(=O)N3CCN(c4ccccc4)CC3)c3ccccc3n2)cc1C
 : 0.74, -5.9
> COc1ccc(-c2nc3ccccc3o2)cc1NC(C)=O
 : 1.1, 0.3
> Cc1nc(Nc2ccc(Br)cc2)sc1C(=O)Nc1ccc(Br)cc1
 : 0.96, -0.59
> COC(=O)c1cccc(Nc2cc(C)nc3cc(Cl)ccc23)c1
 : 1, 0.33
> Cc1cc(C)cc(CC2CC(=O)N(c3cc(C)on3)C2=O)c1 (stereo not drawn)
 : 1.1, 1.5
> CCOCCCNC(=O)C(c1ccc(Cl)cc1)N1CCOCC1 (stereo not drawn)
 : 1, 1
> COc1ccc(C2C(C(=O)NC3CCCCC3)CCC(=O)N2c2ccc3c(c2)OCO3)cc1 (stereo not drawn)
 : 1, 1.9
> CCc1nnc(NC(=O)Nc2ccc3c(c2)N(C)C(=O)CS3)s1
 : 1, 0.26
> Cc1ccc2c(c1)N(CC(=O)N1CCN(C)CC1)C(=O)CO2
 : 0.95, -1.3
> COc1ccc(N2CCN(CC(O)COc3ccc(C)c(C)c3)CC2)cc1 (stereo not drawn)
 : 0.82, -5.7
> COc1cccc(CN2C(=O)CCC2(C)C(=O)NCCc2ccc(OC)c(OC)c2)c1 (stereo not drawn)
 : 1.1, 0.98
> COc1cccc(NC(=O)C(Cc2ccccc2)NS(=O)(=O)c2cccs2)c1 (stereo not drawn)
 : 1, 0.83
> CC(NC(=O)C1CCCN(C(=O)c2cc3sccc3n2C)C1)c1ccccc1 (stereo not drawn)
 : 0.79, -5.9
> Cc1ccc(Cn2nc(C)c(NC(=O)c3cc(C(C)C)on3)c2C)cc1
 : 1, 0.001
> CCOC(=O)c1oc2ccccc2c1NC(=O)c1ccc(S(=O)(=O)N2CCCCC2C)cc1 (stereo not drawn)
 : 1.1, 2.7
> Cc1c(C(=O)Nc2ccc(F)c(F)c2)sc2nc(-c3ccc(F)cc3)cn12
 : 1.1, 1.1
> Cc1ccc(NS(=O)(=O)c2ccc3c(c2)CCN3C(=O)CCC(=O)O)cc1Cl
 : 0.93, -2.3
> COCCCNC(=O)CSc1nc(Nc2ccc3c(c2)OCO3)c2ccccc2n1
 : 0.95, -0.14
> Cc1ccc(NC(=O)C2c3ccccc3C(=O)N3CCc4ccccc4C23)cc1F (stereo not drawn)
 : 0.84, -3.2
> CCCCOc1ccc(C(=O)Nc2ccccc2-c2nc3ccccc3[nH]2)cc1
 : 1, -0.066
> Cc1ccn2c(NC(=O)c3ccc(F)cc3)c(-c3ccc(F)cc3)nc2c1
 : 1.1, 0.72
> Cc1ccc(NC(=O)CCc2nnc3ccc(NCCCc4ccccc4)nn23)cc1
 : 0.86, -3.8
> CCc1ccccc1Nc1nc(-c2sc(NC(C)=O)nc2C)cs1
 : 0.73, -4
> CCN1CCCC1CNC(=O)c1cn(C)c(=O)c2c1c1ccccc1n2C (stereo not drawn)
 : 1.1, 2.5
> CCc1cccc(NC(=O)C2CCN(S(=O)(=O)c3c(C)noc3/C=C/c3cccs3)CC2)c1
 : 0.98, -0.76
> Cc1cc(=O)n2nc(N3CCCC(C(=O)NCc4ccc(Cl)cc4)C3)sc2n1 (stereo not drawn)
 : 1, 0.4
> CCN(c1nc(C)cc(OC)n1)S(=O)(=O)c1ccc(C)cc1
 : 0.98, -0.58
> O=C(NC1CCCC1)C(c1ccccc1)N1CCOCC1 (stereo not drawn)
 : 1, 1.7
> Cc1ccccc1-c1nc(CN2CCC(C(=O)NCCCN(C)c3ccccc3)CC2)c(C)o1
 : 0.93, -0.59
> NC(=O)c1ccccc1NC(=O)Nc1ccc(Cl)cc1
 : 0.93, -0.31
> CC1=Nc2cc(C(=O)NCC3CCCO3)ccc2Sc2ccccc21 (stereo not drawn)
 : 0.91, -1.4
> COc1ccc(CCNC(=O)C2c3ccccc3C(=O)N2Cc2ccc3c(c2)OCO3)cc1OC (stereo not drawn)
 : 0.94, -1
> O=C(c1c[nH]c2ccc(S(=O)(=O)Nc3ccccc3F)cc2c1=O)N1CCc2ccccc2C1
 : 0.92, -1.5
> CCOC(=O)c1cnc2ccc(OC)cc2c1Nc1ccc(OC(F)(F)Cl)cc1
 : 1.1, 3.9
> CC(C)n1c(C(O)c2cc(C(C)(C)C)c(O)c(C(C)(C)C)c2)nc2ccccc21 (stereo not drawn)
 : 0.97, -0.88
> COc1ccc(-c2nc(C#N)c(N3CCCC3)o2)cc1
 : 1, 0.48
> O=C1CC(Nc2ccc(F)cc2)C(=O)N1c1ccccc1 (stereo not drawn)
 : 1, 0.34
> Cc1ccc(OCC(=O)O)c(-n2nc3ccccc3n2)c1
 : 1, 0.28
> CC(C)c1ccc(Nc2c(-c3ccc(O)cc3)nc3nc[nH]n23)cc1
 : 0.85, -3.9
> CCc1c(C)sc(NC(=O)c2cc(-c3ccccc3OC)on2)c1C#N
 : 1.1, 0.69
> O=C1CC(N2CCN(C/C=C/c3ccccc3)CC2)C(=O)N1c1ccc(Br)cc1 (stereo not drawn)
 : 1, 0.34
> Cc1ccc(N2C(=O)N(c3ccccc3C)C3CS(=O)(=O)CC32)cc1 (stereo not drawn)
 : 0.92, -1.9
> O=C(O)c1ccc2[nH]c(=O)c(Cc3cc(Br)ccc3F)nc2c1
 : 1.1, 3.5
> COc1ccccc1CNC(=O)c1cc(-c2cccs2)nc2ccccc12
 : 1, 1.6
> COc1ccc(-c2nc(N3CCOCC3)[nH]c(=O)c2C#N)cc1
 : 0.98, -0.38
> CCOC(=O)c1cnc2cc(Cl)c(OC)cc2c1Nc1ccc2c(c1)OCCO2
 : 0.82, -0.2
> CC(C)NC(=O)c1cc2c(s1)CS(=O)(=O)C2
 : 1.1, 1.8
> O=C1c2ccccc2C(=O)N1c1cccc(-c2csc(Nc3ccc(Cl)cc3)n2)c1
 : 0.84&0.94, -2.5&-0.69
> COc1cccc(C(=O)Nc2ccc(-c3csc(C)n3)cc2)c1
 : 1.1, 0.15

Given as comma-separated lines: entries from further up
molecule,CBX7 inh,CBX7 inh z-score
COc1ccccc1CNC(=O)c1cc(-c2cccs2)nc2ccccc12,1,1.6
COc1ccc(-c2nc(N3CCOCC3)[nH]c(=O)c2C#N)cc1,0.98,-0.38
